Sfp PPTase inh: blocks B. subtilis Sfp PPTase activity. Q9F4F7. Biochemical Sfp PPTase activity, qHTS. Potency, µM, for the others: max response, negative = inhibition, actives largely listed as inhibitors. 3.5% of 310,000 active. AID 1490; active means well fitted inhibition curve with a large enough effect; inconclusive means small, poorly fitted or top-dose-only effect, or another doubt; inactive means no such curve, though single readings can be large or run the other way;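 further: the enzyme is Sfp with the accession as filed and its product quenches rhodamine fluorescence; potency means the concentration at half of the fitted maximal effect; 0% = enzyme reaction without inhibitor and -100% = no enzyme wells; top concentration of the series not given in the record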
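Buffer: 50 mM Hepes-Na pH 7.6, 10 mM MgCl2, 0.01% Nonidet P-40, 0.01% BSA. Enzyme 15 nM, pre-exposed to compound 15 min; substrates then added and fluorescence change tracked over 30 min.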
Menin MLL FP FL: displaces fluorescein MLL peptide from human menin; Fluorescence polarization, fluorescein-MLL peptide displacement from menin; 290,000 tested, under 10 active; FP activity change, % at 61.4 µM; AID 1766; inconclusive = falling polarisation curve, or a change in total fluorescence; inactive = total fluorescence flat and polarisation flat or rising; no compound was filed as active; the % refers to the polarisation; negative = inhibition;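 further: % of control where 0% means no effect; inhibitors lower the polarisation; unlabelled MLL peptide was the positive control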
gsp ag: gsp mutant agonism; Potency, µM (highest dose often 76.9 µM), for the others: at the highest dose activation (cAMP increase), most hits filed as activators; AID 624287; gsp mutant cells, cAMP HTRF, 30 min; control for the full effect not named in the record; 0.13% of 340,000 active; active = well fitted activation curve with a large enough effect; inconclusive = small, poorly fitted or top-dose-only effect, or another doubt; inactive = no such curve, though single readings can be large or run the other way; cell line not stated here;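 further: phosphodiesterase inhibitor Ro 20-1724 added with compounds to block cAMP breakdown; potency means the concentration at half of the fitted maximal effect; nearly all actives have a fitted effect of over 60% in size; about a fifth of the inactives were tested at one dose only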
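Cells stably selected in G418 were plated at 2000/well, grown 16-24 hr, then given compounds in DMSO with the PDE inhibitor […] (300 uM solution added) for 30 min at 37C; cAMP was read by HTRF.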
TRPV1 PAM: potentiators of human vanilloid receptor 1 (TRPV1); Q8NER1; TRPV1-expressing cells, Fluo-8 calcium influx, capsaicin EC20 potentiation; host cell line not named in the record; control for the full effect not named in the record; potentiation, % at 8.33 µM; 0.02% of 320,000 active; AID 540277; active means potentiation above 80%; inconclusive means 30% to 80%; inactive means below 30%; further: 0% is about no effect
Target sequence (Q8NER1 whole entry, looked up): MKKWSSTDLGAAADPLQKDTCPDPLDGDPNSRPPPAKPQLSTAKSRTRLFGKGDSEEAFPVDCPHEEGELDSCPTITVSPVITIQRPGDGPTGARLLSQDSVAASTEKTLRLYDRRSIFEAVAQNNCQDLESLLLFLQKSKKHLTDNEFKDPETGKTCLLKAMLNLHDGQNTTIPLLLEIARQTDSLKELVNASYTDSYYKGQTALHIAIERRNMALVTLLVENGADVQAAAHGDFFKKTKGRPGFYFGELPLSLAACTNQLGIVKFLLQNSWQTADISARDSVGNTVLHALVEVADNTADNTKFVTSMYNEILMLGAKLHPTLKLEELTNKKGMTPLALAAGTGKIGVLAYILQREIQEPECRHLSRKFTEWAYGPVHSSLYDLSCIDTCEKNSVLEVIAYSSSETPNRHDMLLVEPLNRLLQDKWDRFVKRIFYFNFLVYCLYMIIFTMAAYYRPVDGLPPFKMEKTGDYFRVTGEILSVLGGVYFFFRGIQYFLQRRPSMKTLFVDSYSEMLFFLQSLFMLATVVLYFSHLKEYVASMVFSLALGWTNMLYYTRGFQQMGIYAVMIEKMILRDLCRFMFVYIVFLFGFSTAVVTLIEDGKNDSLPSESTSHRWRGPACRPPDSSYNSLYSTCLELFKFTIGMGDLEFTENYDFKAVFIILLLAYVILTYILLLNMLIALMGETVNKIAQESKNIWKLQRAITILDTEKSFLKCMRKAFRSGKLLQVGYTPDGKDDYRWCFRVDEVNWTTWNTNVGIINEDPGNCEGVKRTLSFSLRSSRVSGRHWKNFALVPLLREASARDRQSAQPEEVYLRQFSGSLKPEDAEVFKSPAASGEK
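Fluo-8 calcium influx in TRPV1-expressing cells, kinetic read (ex 480/em 520 nm). Compound added and read 3 min for agonist activity, followed by capsaicin at EC20 final and 2 min further read for enhancement.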
ClpP mod: qHTS Assay for Activators of ClpP; ATP-dependent Clp protease proteolytic subunit (Bacillus subtilis (strain 168)), P80244; purified B. subtilis ClpP, FRET peptide cleavage, 20 min; Potency, µM (series often up to 57.5 µM), for the others: at the top dose activity change, negative = active; 1.9% of 340,000 active; active = well fitted falling curve with a large enough effect; inconclusive = small, poorly fitted or top-dose-only effect; inactive = no such curve, though single readings can be large or run the other way; further: potency means the concentration at half of the fitted maximal effect; the source files actives as falling curves though it sought activators and does not explain the sign; nearly all actives have a fitted effect of over 65% in size; many hits overshoot -100%
Target sequence (P80244 whole entry, looked up): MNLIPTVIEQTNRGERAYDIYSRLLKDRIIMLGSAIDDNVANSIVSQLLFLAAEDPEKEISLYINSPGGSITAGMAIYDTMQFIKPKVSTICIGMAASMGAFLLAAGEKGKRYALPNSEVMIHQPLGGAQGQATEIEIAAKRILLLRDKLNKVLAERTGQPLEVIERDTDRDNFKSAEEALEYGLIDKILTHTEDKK
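ClpP 10 microg/mL final, pH 8 Tris/KCl buffer with BSA, glycerol, Tween-20; compound pinned in; FRET-FV substrate; RT 20 min; Ex320/Em430; ΔFRET vs ADEP 5.8 microM, DMSO, no enzyme.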
CtBP-E1A inh: CtBP/E1A binding inhibition | 0.49% of 340,000 active | AlphaScreen GST-E1A/His-CtBP binding, 1536-well; stronger effect = lower value; control for the full effect not named in the record | activity change, % (no concentration beside the values); in the data active means activity change below about -65%; inconclusive means about -30% to -65%; inactive means above about -30%; further: on the % scale 0 is the no-effect control and ±100 the full control effect; compound concentration not given in the record
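Homogeneous bead-based format: GST-tagged E1A captured on glutathione donor beads, His-tagged CtBP on nickel acceptor beads; compounds precede bead addition by 2 h at 37 °C.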
gsp antag: antagonizes gsp, the McCune-Albright syndrome mutation. gsp-mutant cells, cAMP HTRF, 30 min; control for the full effect not named in the record. Potency, µM (doses to about 76.9 µM), inactives show at the highest dose activity change, negative = inhibition, usual class: inhibitors. 0.4% of 340,000 active; active = falling curve of any shape with a large fitted effect; inconclusive = falling curve, mostly with a smaller effect; inactive = flat or rising curve; cell line not stated here;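 further: intracellular cAMP measured with PDE inhibitor Ro 20-1724 present during compound exposure; potency means the concentration at half of the fitted maximal effect; on the % scale 0 is the no-effect control and ±100 the full control effect; nearly all actives have a fitted effect of over 65% in size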
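HTRF cAMP measurement after 30 min RT detection following 30 min, 37C compound treatment alongside […] (added as 300 uM solution) in G418-selected cells seeded at 2000/well and grown 16–24 h.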
Numbers without * were called inactive; u = inconclusive; x = no result given; & = joins results of further samples; [ ] = dose if it differs, or a comment.

SMILES	Sfp PPTase inh	Menin MLL FP FL	gsp ag	TRPV1 PAM	ClpP mod	CtBP-E1A inh	gsp antag
COc1ccc(CCNc2ncnc3sc(C)cc23)cc1OC	-7%	-0.8	-21%	-5	x	2	35µM*
COc1ncnc(NS(=O)(=O)c2ccc(N)cc2)c1OC	31%[activator]	1.2[24.8 µM]	x	13	-1.5%	10	-2%
COc1ccc([N+](=O)[O-])cc1NC(=O)C(C)NNC(=O)c1cccc([N+](=O)[O-])c1 (stereo not drawn)	x	x	4%	x	-1.8%	u	0%
Nc1nc(N)c(N=Nc2ccc(SCC(=O)O)cc2)c(=O)[nH]1	-10%	0.0	u	-27	-11%	x	0%
COc1ccc(C2C(C(=O)N3CCN(c4ccccc4F)CC3)c3ccccc3C(=O)N2C)cc1 (stereo not drawn)	13%	8.2	3%	-18	0.3%	5	-11%
CCn1c(C)cc2c(c1=O)C(c1ccccc1Br)C(C#N)=C(N)O2 (stereo not drawn)	-2%	3.0	-41%[inhibitor]	4	-12%	-5	-7%
CCN(Cc1ccncc1)C(=S)Nc1ccc(Cl)cc1	9%	-1.4	31%	7	-1.0%	2	3%
O=C(COC(=O)/C=C/c1ccco1)NCc1ccc(Cl)cc1	x	x	-43%[inhibitor]	-2	0.7%	3	14%
Cc1nc2c(cnn2-c2ccccc2)c(=O)n1/N=C/c1ccccc1	-4%	-2.1	1%[15.4 µM]	0	-1.1%	-19	-9%
CCOC(=O)c1cc2c(N)c(C(=O)c3cc(C#N)c(SC)nc3C)sc2nc1C	40µM*	1.8	8%	-13	10%	-11	-10%
CC(=O)Nc1cccc(C(=O)N/N=C/c2ccccc2F)c1	8%	0.0	-30%[inhibitor]	-16	-2.9%	-10	-2%
Cn1c(C(N)=O)cnc1Sc1ncc(C(F)(F)F)cc1Cl	22%	-0.5	-30%[inhibitor]	1	1.1%	2	2%
O=C(c1cccc(S(=O)(=O)N2CCCC2)c1)N1CCOCC1	x	x	4%	-1	-0.5%	0	0%
Cc1nnc(-c2cnn(-c3ccccc3)c2N)n1Cc1ccccc1	2%	7.6	u	10	3.4%	11	5%
CC(C)C[C@@H](CO)N1CCN(C)CCC1=O	13%	-9.7	x	-4	0.5%&0.9%	7	2%
COc1ccccc1C(=O)COC(=O)Cc1ccccc1F	x	x	-4%[15.4 µM]	x	0.4%	21	-12%
CNC1(C)[C@H]2CC[C@H](C2)C1(C)C (stereo partly drawn)	x	x	x	x	0.8%	1	1%
Cc1cccc(C(=O)OCC(=O)NC(C)CCc2ccccc2)c1O (stereo not drawn)	7%	-4.3	6%	3	x	5	4%
COC1C(C)=C(C)C(=O)N1Cc1ccc(F)cc1 (stereo not drawn)	19%	3.4	-25%	2	x	6	7%
CCn1c(CNc2ccc(OC)cc2)nnc1SCC(=O)N1CCCc2ccccc21	-19%	-2.5	-76%[inhibitor]	3	0.0%	-9	-26%
COC(=O)COc1ccc(-c2ccccc2)cc1C=O	79µM*	0.0	21%[15.4 µM]	3	x	4	19%
COCC(=O)Nc1cc(Cl)c(OC)cc1OC	-5%	-0.3	-1%	4	0.6%	4	7%
CCOC(=O)c1c(N)sc(C(N)=O)c1C	u	0.0	u	-4	-2.1%	-4	21%
CC(C)(C)OC(=O)N(CCc1ccccc1)Cc1ccc(OCc2cccc(NC(=O)C3CC3)c2)cc1	x	x	x	x	-0.8%	-12	-2%
COc1ccc(N2CCN(CC(O)COCc3ccccc3)CC2)cc1 (stereo not drawn)	8%	1.0	-1%	-4	-6.0%	-4	4%
CN(C)CC(O)CN1C(=O)NC(C)(C)C1=O (stereo not drawn)	8%	-7.1	0%	-3	-0.4%	x	4%
Cc1ccc(S(=O)(=O)Nc2cccc(C(=O)NCc3cccnc3)c2)cc1F	x	x	-4%	20	-2.9%	-1	23%
O=C(c1cccs1)N1CCc2c([nH]c3ccccc23)C1c1ccc(Cl)cc1 (stereo not drawn)	16%	2.2	7%	0	-1.6%	-14	1%
O=C(c1ccncc1)c1ccc(NC(=O)c2cccs2)cc1	3%	-4.7	6%[15.4 µM]	11	x	4	-14%
CCN(CC)C(=O)[C@H]1C[C@H](CC(=O)NCc2ccc(OC)c(OC)c2)C(=O)N2CCc3c([nH]c4ccc(Cl)cc34)[C@]12C	x	x	x	x	-1.0%	-9	-7%
COc1ccc(-n2nc(C(=O)NCC(=O)NCc3ccco3)c3ccccc3c2=O)cc1	22%	2.2	-40%[inhibitor]	-2	-1.0%	1	7%
COC(=O)c1sc2ncccc2c1OCc1c(Cl)cccc1Cl	3%	2.1	-14%	20	-23%	6	-3%
COC(=O)N(NC(=O)C(O)(CCC(C)C)CCC(C)C)c1ccccc1	8%	-0.9	-14%	12	-1.6%	11	4%
CCCCOc1ccc(CSCCNC(=S)Nc2ccccc2)cc1	21%	2.9	-35%[inhibitor]	-7	-6.0%	9	-27%
COc1cccc(CN2CC(C(=O)N(C)Cc3nc4ccc(F)cc4[nH]3)CCC2=O)c1 (stereo not drawn)	21%	x	-12%	19	0.1%	9	5%
CC1(C)Cc2c(C#N)c(NCCCO)nc(-c3ccccc3)c2CO1	13%	4.5	-15%	-26	5.4%	10	8%
CC(C)Oc1ccc(OCCn2c(S(=O)(=O)O)nc3c(N)ncnc32)cc1	10%	11	3%	2	-3.1%	x	-6%
CCOC(=O)c1ccccc1NC(=O)CSc1nc2[nH]ncc2c(=O)[nH]1	x	x	18%	-5	-2.4%	3	-14%
Cc1nc(NC(=O)CSc2nnc(Cn3nnc4ccccc43)n2C)sc1C	10%	4.5	16%	-3	-0.6%	5	8%
COc1ccccc1C(=O)N1CCC(N2CCN(c3ccccc3OC)CC2)CC1	89µM*	4.5	-7%[15.4 µM]	-7	0.1%	3	18%
NC(=O)C1CCN(C(=O)c2ccc(F)c(S(=O)(=O)N3CCOCC3)c2)CC1	x	x	-31%[15.4 µM]	-8	-4.0%	9	13%
C[C@@H]1CN([C@@H](C)CO)C(=O)c2cc(Br)cnc2O[C@@H]1CN(C)Cc1ccc(Oc2ccccc2)cc1	x	x	-94%[inhibitor]	x	-1.1%	5	x
Clc1ccccc1-c1ccc(/C=N/Nc2nncc(-c3ccccc3)n2)o1	-9%	0.1	-1%	-6	-2.9%	x	-7%
CC(C)CC(=O)NS(=O)(=O)c1ccc(NC(=O)c2ccco2)cc1	1%	1.9	15%[15.4 µM]	-4	x	-6	5%
Cc1cccc(OCCCc2c(C)n[nH]c2C)c1	-1%	1.8	18%	6	-0.3%	6	-9%
COc1cccc(OCC(O)CN2CCN(c3ccc(F)cc3)CC2)c1 (stereo not drawn)	-3%	-17	-31%[inhibitor]	-10	-0.3%	-4	13%
FC(F)Oc1ccccc1/C=N/n1cnc2ccccc21	4%	-3.6	-33%[15.4 µM]	-10	x	6	-6%
COc1ccc(NC(=O)CN2C(=O)NC3(CCCC3)C2=O)cc1Cl	5%	-8.9	-4%[15.4 µM]	-2	x	2	9%
CC(CCCC(C)(C)O)CC1C2=C(CCCC2=O)OC2=C1C(=O)CCC2 (stereo not drawn)	-10%	0.9	8%[15.4 µM]	0	-0.2%	11	-5%
CCOC(=O)CSc1nnc(CNC(=O)c2ccccc2OC)n1-c1ccc(OC)cc1	0%	1.3	2%	-18	-5.1%	-9	3%
Cn1nccc1C(=O)Nc1ccccc1C(=O)O	5%	-0.9	-1%	2	0.9%	-17	-10%
COc1ccc(-c2csc(N(CC(C)C)C(=O)c3ccco3)n2)cc1	-2%	-0.5	0%	18	x	-2	-16%
NS(=O)(=O)c1ccc(NC(=O)COC(=O)C2(c3ccccc3F)CCCC2)cc1	2%	1.4	3%	-12	25µM*	-5	-4%
COC(=O)c1cc(NC(=O)c2ccc(F)cc2)cc(C(=O)OC)c1	21%	0.7	22%[15.4 µM]	-17	x	0	-11%
Cc1cc(C)c(NC(=O)CNC(=O)c2ccccc2OCc2c(C)noc2C)c(C)c1	x	x	15%	23	1.0%	0	9%
O=C(Nc1ccccc1N1CCN(C(=O)c2ccccc2)CC1)c1ccco1	14%	-6.0	11%	7	x	-2	u
O=C(NC1CCCCC1)c1ccc(S(=O)(=O)N2CCCCC2)cc1	-4%	-0.4	-3%	-24	-1.3%	1	-3%
CCN(c1ccccc1)c1nc(=O)c2cccnc2s1	-4%	-0.2	27%	1	-5.2%	5	-26%
Cc1ccc(OCCC(=O)OCC(=O)Nc2c(C)nn(-c3ccccc3)c2C)cc1	x	x	-5%	-7	-0.8%	-6	-24%
Cn1c(N)c(C(=O)CSc2nnc3n2CCCCC3)c(=O)n(C)c1=O	x	x	29%[15.4 µM]	x	-0.4%	3	3%
Further entries:
SMILES	Sfp PPTase inh	Menin MLL FP FL	gsp ag	TRPV1 PAM	ClpP mod	CtBP-E1A inh	gsp antag
COC(=O)c1c(NS(=O)(=O)Cc2ccccc2)sc2c1CCCC2	-6%	5.0	-13%	4	0.1%	6	u
COc1ccc(C)cc1S(=O)(=O)NC(C)C(=O)Nc1ccc2c(c1)OCO2 (stereo not drawn)	1%	0.5	21%[15.4 µM]	23	x	-9	-12%
Cc1ccc(NC(=O)CN2C(=O)NC3(CCCc4ccccc43)C2=O)c(Cl)c1 (stereo not drawn)	x	x	10%	x	x	6	1%
CCOC(=O)c1ccccc1NC(=O)COC(=O)CN1C(=O)C2CC=CCC2C1=O (stereo not drawn)	-6%	0.3	-30%	-25	-2.1%	0	-16%
CC(C)(C)c1ccc(OCC(=O)Nc2ccc3c4c(cccc24)C(=O)NC3=O)cc1	10%	u	u	-18	48%	x	-4%
Cc1ccccc1OCC(=O)NS(=O)(=O)c1ccc(Cl)cc1	28%	x	29%	3	-3.1%	-1	-1%
CC1=NN(C(C#N)c2c(C)nn(Cc3ccccc3)c2C)C(C)(C)C1 (stereo not drawn)	17%	1.1	-66%[inhibitor]	16	3.1%	x	9%
CCn1c(SCC(=O)Nc2ccc(C)cc2)nc2nc3c(cc2c1=O)COC(C)(C)C3	-16%	-1.1	28%	-2	x	9	-6%
Cc1cc(/C=C(\C#N)C(=O)NCc2ccco2)c(C)n1C1CCCC1	-17%	4.3	27%	-3	3.1%	-18	-11%
CSC1=NN(c2ccccc2)CN(c2ccccc2)N1C	x	x	-1%	x	-0.8%	-3	x
COc1ccccc1C(=O)NCCC(=O)NCC(c1ccco1)N1CCCCC1 (stereo not drawn)	x	x	6%	9	-1.9%	3	11%
